Assay outcomes as filed in PubChem.
Arbovirus inh = blocks arbovirus infection | inhibition, % at 10 µM | 200,000 tested, 0.37% active | arbovirus infection cell-based antiviral screen | AID 1251;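 active means inhibition from about 30%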;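 further: bluetongue infection of BSR cells; cell survival read as ATP light after 72 h; 0% = infected wells without compound and 100% = uninfected wells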
Mtb bLac sens = beta-lactam sensitization of Mtb H37Rv; M. tuberculosis H37Rv growth with meropenem, percent inhibition; hits of this screen are not shown here; AID 434955; inhibition, % at 25 µM; 330,000 tested, 0.27% active;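 active means about 74% or more and at least 40 points above the plate without the antibiotic, then above 30% in a dose series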;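 further: growth measured after seven days incubation then overnight dye step; 0% = bacteria only wells and 100% = bacteria with antibiotic; twin plates without the antibiotic show which effects depend on it; some results filed as inactive read as strong as hits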
YopH inh = blocks Yersinia enterocolitica YopH tyrosine phosphatase. fluorescence Ex485/Em525. inhibition, %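 (about 10 µM by stock and volumes)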. 140,000 tested, 0.16% active. AID 898;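 active means inhibition of 50% or more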;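 further: controls were vehicle for no effect and minimum signal wells for full effect; inactives centre near -20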
RecA splice inh = inhibitors of M. tuberculosis RecA intein splicing; P9WHJ3; cell-free RecA intein splicing, fluorescence; inhibition, %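 (about 9 µM by stock and volumes)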; 290,000 tested, 0.75% active; AID 2221; in the data active means inhibition above about 30%;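 further: 0% = vehicle wells and 100% = reference inhibitor control wells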
Target sequence (P9WHJ3 whole entry, looked up, canonical isoform): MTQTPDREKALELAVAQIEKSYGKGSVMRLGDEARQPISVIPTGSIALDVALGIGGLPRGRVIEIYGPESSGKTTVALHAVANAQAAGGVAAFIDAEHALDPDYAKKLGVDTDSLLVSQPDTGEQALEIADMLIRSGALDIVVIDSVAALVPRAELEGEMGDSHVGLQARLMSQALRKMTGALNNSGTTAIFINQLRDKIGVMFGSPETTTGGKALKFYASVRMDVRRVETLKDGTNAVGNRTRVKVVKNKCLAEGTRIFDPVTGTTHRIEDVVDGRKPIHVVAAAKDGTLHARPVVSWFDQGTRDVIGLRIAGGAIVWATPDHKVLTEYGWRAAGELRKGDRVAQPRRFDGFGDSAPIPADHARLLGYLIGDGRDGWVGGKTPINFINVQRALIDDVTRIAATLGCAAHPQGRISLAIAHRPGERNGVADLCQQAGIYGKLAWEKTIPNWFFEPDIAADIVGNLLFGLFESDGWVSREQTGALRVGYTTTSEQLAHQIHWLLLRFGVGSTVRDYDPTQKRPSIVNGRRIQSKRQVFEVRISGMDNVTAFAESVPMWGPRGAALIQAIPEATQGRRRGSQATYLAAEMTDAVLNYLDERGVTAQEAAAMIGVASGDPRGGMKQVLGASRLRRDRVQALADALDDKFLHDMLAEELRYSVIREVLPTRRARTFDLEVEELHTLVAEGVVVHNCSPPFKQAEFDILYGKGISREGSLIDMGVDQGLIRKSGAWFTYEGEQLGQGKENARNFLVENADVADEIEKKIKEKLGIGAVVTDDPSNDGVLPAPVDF
Mtb H37Rv = M. tuberculosis H37Rv growth inhibitors, H37Rv strain (AID 1626); M. tuberculosis H37Rv growth inhibition; higher % means a stronger effect; inhibition, % at 10 µM, or IC50 in µM where a hit was titrated; 220,000 tested, 0.95% active;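 active means confirmed in a dose series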;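 further: bacteria incubated seven days before Alamar blue readout; 0% = bacteria only wells and 100% = bacteria with antibiotic wells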
Arbovirus inh repeat = further read-out of Arbovirus inh, marked with its call; inhibition, %; measured here: 10K subset replicate screen; many hits read low in the repeat;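 first of two repeat runs on a subset; 0% = infected and 100% = uninfected wells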
* marks the source's active call; other numbers are inactive results; / = no result given. Only part of the results is shown; count on the stated rates, not on these rows.

SMILES	Arbovirus inh	Mtb bLac sens	YopH inh	RecA splice inh	Mtb H37Rv	others
COc1cc2c(cc1OC)C(C)N(S(=O)(=O)c1cnc(Cl)c(Cl)c1)CC2 (centres undefined)	/	-6	/	7.1	/
O=C(CN1CC(c2ccccc2)CC1=O)Nc1cccc(F)c1 (centres undefined)	-1	4	-18	4.0	/	Arbovirus inh repeat=0
N#Cc1ccsc1NC(=O)CN1CCCCCC1	11	8	-29	4.5	-4%
Cc1nc2ccc(Br)cn2c1NC(C)(C)C	-2	5	7	-0.5	0%	Arbovirus inh repeat=4
COc1ccc(C2CN(C)CC2C(=O)c2ccc(F)cc2)cc1Cl (centres undefined)	-7	0	/	-0.9	12%
Cc1c(C(=O)NCCN(C)C)oc2ccc(S(=O)(=O)N3CCCC3)cc12	/	-3	/	1.8	/
COc1ccc(S(=O)(=O)n2nc(OC(=O)c3ccc(C)cc3)cc2N)cc1	2	-2	-8	7.0	-3%
Cc1ccc(CCC(=O)Nc2nccs2)o1	5	-6	-3	0.4	4%
CCOC(=O)CSc1nc2cc(C(=O)N3CCC(C(N)=O)CC3)ccc2c(=O)n1-c1ccccc1	0	-3	-7	0.4	-2%
Cc1cc(NC(=O)COC(=O)c2ccc(NS(=O)(=O)c3ccc(C)c(C)c3)cc2)no1	4	-8	-2	8.9	-6%
COC(=O)c1sccc1NC(=O)/C=C/c1ccc(Cl)cc1	24	7	-15	3.7	3%
O=C(O)c1nccnc1C(=O)Nc1ccc(S(=O)(=O)N2CCOCC2)cc1	/	-4	/	-0.2	-4%
COc1ccc(C(=O)NCCc2nnc(SCc3nc4ccccc4c(=O)[nH]3)n2C)cc1	5	-10	-12	2.0	-18%
CC1(C)NC(=O)N(CC(O)COc2ccccc2C(=O)Nc2ccccc2)C1=O (centres undefined)	-3	-9	-26	1.7	-2%
COc1ccc(NC(=O)CN2CCC(C)CC2)cc1	-1	1	-12	0.5	1%
O=C1c2ccccc2C(=O)N1CCCCN(C(=O)c1cccc([N+](=O)[O-])c1)c1ccc(Cl)cc1	-4	-6	-52	5.0	-5%
CCN1CCN(c2cc(N3CCc4ccccc4C3)c(F)cc2[N+](=O)[O-])CC1	-30	20	5	2.2	4%
Cc1cc(C(=O)CSc2nnc(N)s2)c(C)n1CCc1ccc(Cl)cc1	-14	14	12	1.8	-9%
CCN1CCN(CC(c2ccccc2)c2ccccc2)CC1	/	0	/	-3.2	/
Nc1ccccc1SCC(=O)N1CCc2ccccc21	2	3	-26	2.1	-1%

20 structures out of the list, sorted by molar mass, lowest first:
SMILES	Arbovirus inh	Mtb bLac sens	YopH inh	RecA splice inh	Mtb H37Rv	others
Cc1ccc(CCC(=O)Nc2nccs2)o1	5	-6	-3	0.4	4%
COc1ccc(NC(=O)CN2CCC(C)CC2)cc1	-1	1	-12	0.5	1%
N#Cc1ccsc1NC(=O)CN1CCCCCC1	11	8	-29	4.5	-4%
Cc1nc2ccc(Br)cn2c1NC(C)(C)C	-2	5	7	-0.5	0%	Arbovirus inh repeat=4
Nc1ccccc1SCC(=O)N1CCc2ccccc21	2	3	-26	2.1	-1%
CCN1CCN(CC(c2ccccc2)c2ccccc2)CC1	/	0	/	-3.2	/
O=C(CN1CC(c2ccccc2)CC1=O)Nc1cccc(F)c1 (centres undefined)	-1	4	-18	4.0	/	Arbovirus inh repeat=0
COC(=O)c1sccc1NC(=O)/C=C/c1ccc(Cl)cc1	24	7	-15	3.7	3%
COc1ccc(C2CN(C)CC2C(=O)c2ccc(F)cc2)cc1Cl (centres undefined)	-7	0	/	-0.9	12%
Cc1c(C(=O)NCCN(C)C)oc2ccc(S(=O)(=O)N3CCCC3)cc12	/	-3	/	1.8	/
CCN1CCN(c2cc(N3CCc4ccccc4C3)c(F)cc2[N+](=O)[O-])CC1	-30	20	5	2.2	4%
COc1ccc(S(=O)(=O)n2nc(OC(=O)c3ccc(C)cc3)cc2N)cc1	2	-2	-8	7.0	-3%
O=C(O)c1nccnc1C(=O)Nc1ccc(S(=O)(=O)N2CCOCC2)cc1	/	-4	/	-0.2	-4%
CC1(C)NC(=O)N(CC(O)COc2ccccc2C(=O)Nc2ccccc2)C1=O (centres undefined)	-3	-9	-26	1.7	-2%
Cc1cc(C(=O)CSc2nnc(N)s2)c(C)n1CCc1ccc(Cl)cc1	-14	14	12	1.8	-9%
COc1cc2c(cc1OC)C(C)N(S(=O)(=O)c1cnc(Cl)c(Cl)c1)CC2 (centres undefined)	/	-6	/	7.1	/
Cc1cc(NC(=O)COC(=O)c2ccc(NS(=O)(=O)c3ccc(C)c(C)c3)cc2)no1	4	-8	-2	8.9	-6%
COc1ccc(C(=O)NCCc2nnc(SCc3nc4ccccc4c(=O)[nH]3)n2C)cc1	5	-10	-12	2.0	-18%
O=C1c2ccccc2C(=O)N1CCCCN(C(=O)c1cccc([N+](=O)[O-])c1)c1ccc(Cl)cc1	-4	-6	-52	5.0	-5%
CCOC(=O)CSc1nc2cc(C(=O)N3CCC(C(N)=O)CC3)ccc2c(=O)n1-c1ccccc1	0	-3	-7	0.4	-2%

More results.
SMILES	Arbovirus inh	Mtb bLac sens	YopH inh	RecA splice inh	Mtb H37Rv	others
O=C(CSc1nc2ccccc2c(=O)n1NC(=O)Cc1ccccc1)NCc1ccccc1	7	-6	0	-0.5	-2%
O=C(Nc1ccc(F)cc1)c1cccnn1	/	0	/	0.8	/
Cc1cccc(C)c1OC(=O)Cc1ccccc1	0	4	/	1.0	-1%
CCOC(=O)[C@H]1CCC[C@@H](NS(=O)(=O)c2ccc(NC(C)=O)cc2)C1	5	-7	-23	4.6	1%
Cc1cccc(CS(=O)(=O)Cc2ccc(C(=O)NCCN3CCCCC3C)o2)c1 (centres undefined)	-3	-17	-35	-1.3	-6%
CC(C)Nc1nc2ccccc2c(=O)[nH]1	1	0	/	-1.1	4%
O=S(=O)(c1cc(Cl)ccc1Cl)N1CCc2ccccc21	/	-5	/	0.9	/
Cc1cc(C)c(S(=O)(=O)Nc2ccc(O)cc2)cc1C	13	-6	-18	-1.1	3%
CC1=C(C(=O)OC2CCCC2)C(c2coc3ccccc3c2=O)C2=C(CCCC2=O)N1 (centres undefined)	3	70	/	0.3	14%
O=C(NCc1ccc(C(=O)N2CCC3(CC2)OCCO3)cc1)c1ccc2c(c1)OCO2	8	-10	-24	-7.7	-3%
O=C(O)CCn1c(=O)sc2ccccc21	4	2	-37	0.9	-6%
C=CCNC(=O)c1ccc2c3n(nc2c1)-c1ccc(C)cc1CO3	/	65	/	-1.9	-5%
COc1ccccc1N1C(=O)CC(N2CCc3ccccc32)C1=O (centres undefined)	2	2	-44	1.4	-6%
Cc1ccccc1C(=O)NC(=S)Nc1ccc(Oc2ccc(Cl)cc2)cc1	0	-8	-30	-0.9	8%
N#CCc1c(C#N)c(N)nc(N2CCN(C=O)CC2)c1C#N	2	13	/	/	3%
CCN(CC)c1ccc(/C=C2/C(=O)N(c3ccc([N+](=O)[O-])cc3)N=C2N2CCOCC2)cc1	4	15	8	-6.8	/
CCCOc1ccc(N2C(=O)CC(N(O)c3ccccc3)C2=O)cc1 (centres undefined)	1	94	-22	-2.8	58%
Cn1c(SCc2nc3ccccc3c(=O)[nH]2)nnc1-c1ccco1	4	7	-13	-1.4	-17%
CCCn1c(=O)[nH]c2ccccc21	1	-3	-19	5.9	-5%
C#CCOCCOCCOCCNc1nc(N2CCN(C(=O)C(Cc3cc4ccccc4[nH]3)n3cc(C(N)Cc4ccc(O)cc4)nn3)CC2)nc(N2CCN(C(=O)C(Cc3cc4ccccc4[nH]3)n3cc(C(N)Cc4ccc(O)cc4)nn3)CC2)n1 (centres undefined)	-6	/	/	6.8	/
COc1ccc(-n2ccnc(SCC(=O)NC3CCCC3)c2=O)cc1OC	/	-4	/	-1.3	/
FC(F)(F)c1cccc(Cc2noc(CN3CCCC(OCc4ccccn4)C3)n2)c1 (centres undefined)	9	5	/	-1.6	0%
CCOc1ccc(NC(=O)COn2nnc3ccc(S(=O)(=O)N4CCOCC4)cc32)cc1	20	-4	/	/	-1%
CC(C)(C)OC(=O)CC[C@@H](C(=O)N1CCN(C(=O)OC(C)(C)C)CC1)n1cc(C(Cc2ccc(O)cc2)NC(=O)OC(C)(C)C)nn1 (some centres undefined)	1	-3	/	-1.7	/
COc1cc(-c2cc(C(=O)Nc3ccc(S(N)(=O)=O)cc3)c3ccccc3n2)cc(OC)c1OC	/	-8	/	6.1	/
CCCn1c(SCC(=O)NCc2ccc(C)cc2)n[nH]c1=O	8	-3	/	0.9	2%
C=CCNC(=S)N1CCN(c2ncc3c(=O)c(C(=O)O)cn(CC)c3n2)CC1	4	15	-34	-1.4	0%
Cc1cc2c(=O)oc(-c3ccc(Br)cc3)nc2s1	/	79	/	-0.2	8%
CC1(C(=O)Nc2nc3ccccc3s2)CC1(Br)Br (centres undefined)	/	6	/	0.5	/
COc1ccc(CN2CCNC(=O)C2CC(=O)NCC2CCOCC2)c(F)c1 (centres undefined)	/	-3	/	-0.3	/
Cc1c(O)cc2c(c1O)C(=O)CC(c1ccc(O)cc1)O2 (centres undefined)	3	-6	/	-1.2	-3%
COCC(C)n1c(C)cc(C(=O)COc2ccc(S(=O)(=O)N3CCOCC3)cc2Cl)c1C (centres undefined)	0	-6	-32	/	-5%
O=C(COC(=O)c1ccc(Cl)nc1)Nc1nnc(-c2ccccc2)o1	/	75	/	-2.5	/
Cc1nn(Cc2ccccc2Cl)c(C)c1NC(=O)CCCn1nc(C)c([N+](=O)[O-])c1C	-7	5	-22	2.0	7%
Cc1ccccc1NC(=O)Cn1nc(C(F)(F)F)cc1C1CC1	6	-12	-16	-5.4	-5%
COc1cccc(-n2nnc3c(=O)n(Cc4ccc(F)cc4)cnc32)c1	-3	-9	-50	-6.4	12%
CCCn1cnc2cc(NCc3cccc(OC)c3)ccc21	-10	5	-24	-0.7	3%
CCCNC(=O)COC(=O)c1cc(SC)ccc1Cl	2	16	-2	-1.0	8%
Cn1c(CNC(=O)CNC(=O)c2cccc(F)c2)cc(=O)n(C)c1=O	/	-1	/	1.4	/
O=C1c2ccccc2-c2nnc(-c3ccccc3)cc21	-11	69	-9	-5.3	-2%
COCCCN1CC23C=CC(O2)C(C(=O)OC)C3C1=O (centres undefined)	/	-4	5	-2.4	-12%
O=C(CNc1cccc(F)c1)N1CCc2ccccc2C1	/	4	/	3.3	/
COc1ccc(NC(=O)COC(=O)C23CCC(=O)N2c2ccccc2S3)cc1 (centres undefined)	0	5	-7	1.3	-6%
Cc1cc(C)nc(SCC(=O)OCC(=O)Nc2ccccc2)n1	/	6	/	-4.5	/
Cc1ccc(S(=O)(=O)N2CCN(C(=O)c3n[nH]c(=O)c4ccccc34)CC2)cc1	9	-8	/	-0.4	5%
Cc1cc(C)cc(S(=O)(=O)c2cn(C)c3cc(N4CCN(C)CC4)c(F)cc3c2=O)c1	/	-4	/	-6.8	/
C/C(=N\NC(=O)CSc1nc2ccccc2s1)c1cccnc1	/	3	/	0.4	8%
CN(C)CCSc1nc(O)c(-c2ccccc2)c(=O)n1-c1ccccc1	/	-5	/	-4.3	6%
CCC(C(=O)OC(C)C(=O)Nc1ccc(Cl)cn1)c1ccccc1 (centres undefined)	/	4	/	3.3	/
CCN(CC)c1ccc(/C=N/N2C(=O)c3ccccc3C2=O)cc1	-2	-4	-13	-0.5	4%
CCN(C(=O)CSc1nnc(-c2ccccc2Br)o1)C1CCS(=O)(=O)C1 (centres undefined)	3	5	/	-1.2	6%
Cc1ccc(C(=O)NCC(=O)NCCc2ccc(S(N)(=O)=O)cc2)s1	/	-5	/	-0.6	2%
CCC(=O)Nc1ccc(Cl)c(-c2nc3ncccc3o2)c1	/	-13	/	3.3	/
CCC1(c2ccc(F)cc2)NC(=O)N(CC(=O)NCc2ccc(F)cc2)C1=O (centres undefined)	/	-9	/	-1.8	/
O=c1sc2ccccc2c(=O)n1Cc1ccccc1F	0	-8	/	-0.1	6%
CC(=O)c1c(C)[nH]c(C(=O)CSc2nnc(N)s2)c1C	-2	1	/	9.6	8%
CCc1ccc(CCC(=O)Nc2ccc(C)cc2C)o1	-15	27	-40	2.1	13%
O=C(CCN=C1NS(=O)(=O)c2ccccc21)OCC(=O)c1ccc(F)cc1	/	1	/	-2.3	/
CCN(CC)c1ccc(C=O)c(OC)c1	10	-2	/	4.0	-8%
